# Screening data from PubChem BioAssay.
# TRPML1 inh = blocks the human TRPML1 channel; Q9GZU1; TRPML1-inducible cells, Ca2+ dye fluorescence, FDSS; stronger effect = lower value; inhibition of EC80 agonist-evoked calcium signal; activity change, negative = inhibition, % (concentration not given with the values); 0.02% of 390,000 active; AID 624415; in the data active means activity change below about -50%; inconclusive means about -30% to -50%; inactive means above about -30%;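 further: stimulus is agonist 54-4 at its EC80 concentration; on the % scale 0 is the no-effect control and ±100 the full control effect; compound concentration not given in the record; the text of the record puts the active cut at -80%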
# Target sequence (Q9GZU1 whole entry, looked up): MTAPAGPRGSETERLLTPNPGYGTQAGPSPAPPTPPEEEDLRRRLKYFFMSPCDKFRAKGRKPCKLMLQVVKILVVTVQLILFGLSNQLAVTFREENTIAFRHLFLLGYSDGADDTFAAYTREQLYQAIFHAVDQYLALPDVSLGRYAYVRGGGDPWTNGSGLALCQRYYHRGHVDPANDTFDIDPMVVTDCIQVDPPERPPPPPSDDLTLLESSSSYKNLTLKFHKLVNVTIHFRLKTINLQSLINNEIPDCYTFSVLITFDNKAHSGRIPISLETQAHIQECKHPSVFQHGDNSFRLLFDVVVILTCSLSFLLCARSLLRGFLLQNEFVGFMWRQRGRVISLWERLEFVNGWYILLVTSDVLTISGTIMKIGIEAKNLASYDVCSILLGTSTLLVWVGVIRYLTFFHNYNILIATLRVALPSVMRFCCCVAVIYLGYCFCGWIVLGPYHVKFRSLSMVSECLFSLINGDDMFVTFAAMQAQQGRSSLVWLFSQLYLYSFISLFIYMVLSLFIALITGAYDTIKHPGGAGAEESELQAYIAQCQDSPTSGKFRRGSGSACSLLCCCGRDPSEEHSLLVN
#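 Tet-induced TRPML1-DL cells loaded with Ca8 no-wash calcium dye were read kinetically on FDSS. Compound addition was followed by EC80 agonist 54-4 (4 uM final); inhibition was read over 110 s.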
# TRPML1 agonist = agonists of human TRPML1 channel; TRPML1-expressing cells, Ca2+ dye fluorescence, FDSS; host cell line not named in the record; reference of the full effect not given here; AID 624414; activation, % (concentration not given with the values); 0.12% of 410,000 active; in the data active = activation above about 50%; inconclusive = about 30% to 50%; inactive = below about 30%; further: 0% is about no effect; the text of the record puts the active cut at 80%
#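 In this qHTS format, compounds were pin-transferred onto Ca8-dye-loaded TRPML1-DL cells induced with Tet overnight, and intracellular Ca2+ fluorescence was recorded kinetically for 110 s after a 10 s baseline. A subsequent 4uM final 54-4 (EC80) addition followed by a second 110 s read served as the antagonist phase.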
# ClpP mod = qHTS Assay for Activators of ClpP; purified B. subtilis ClpP, FRET peptide cleavage, 20 min; Potency, µM (series often up to 57.5 µM), inactives show at the highest dose activity change, negative = active; 1.9% of 340,000 active; AID 651965, 2013; active = well fitted falling curve with a large enough effect; inconclusive = small, poorly fitted or top-dose-only effect; inactive = no such curve, though single readings can be large or run the other way; further: potency means the concentration at half of the fitted maximal effect; the source files actives as falling curves though it sought activators and does not explain the sign; nearly all actives have a fitted effect of over 65% in size; many hits overshoot -100%
# Target sequence (P80244 whole entry, looked up): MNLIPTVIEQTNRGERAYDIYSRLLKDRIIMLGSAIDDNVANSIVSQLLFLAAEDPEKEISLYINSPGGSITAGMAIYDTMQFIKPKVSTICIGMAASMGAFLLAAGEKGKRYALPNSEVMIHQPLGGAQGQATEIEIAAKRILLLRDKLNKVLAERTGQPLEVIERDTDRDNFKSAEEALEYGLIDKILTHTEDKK
#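 FRET quenching reversal measured ClpP activation: 10 microg/mL B. subtilis ClpP at pH 8 with the FRET-FV decapeptide, read at 430 nm after 320 nm excitation. The 20-min minus 0-min signal was scaled between DMSO/no-enzyme wells and ADEP (5.8 microM final).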
# Sfp inh = blocks B. subtilis Sfp PPTase activity; Q9F4F7; 3.5% of 310,000 active; Potency, µM, without a hit: max response, negative = inhibition, usual class: inhibitors; Biochemical Sfp PPTase activity, qHTS; active means well fitted inhibition curve with a large enough effect; inconclusive means small, poorly fitted or top-dose-only effect, or another doubt; inactive means no such curve, though single readings can be large or run the other way;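 further: the enzyme is Sfp with the accession as filed and its product quenches rhodamine fluorescence; potency means the concentration at half of the fitted maximal effect; 0% = enzyme reaction without inhibitor and -100% = no enzyme wells; top concentration of the series not given in the record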
#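 Fluorescence-quenching assay with 15 nM Sfp, 5 uM rhodamine-CoA and 12.5 uM BHQ-2-labelled ybbR peptide in pH 7.6 Hepes/MgCl2 buffer. Enzyme was pre-incubated with compound for 15 min at room temperature. Rate was taken from the 30-min fluorescence change (525/598 nm).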
# TRPV1 PAM = enhances activation of the human vanilloid receptor TRPV1. Q8NER1. TRPV1-expressing cells, Fluo-8 calcium influx, capsaicin EC20 potentiation; host cell line not named in the record; control for the full effect not named in the record. potentiation, % at 8.33 µM. 0.02% of 320,000 active; active means potentiation above 80%; inconclusive means 30% to 80%; inactive means below 30%; further: 0% is about no effect
#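 Cells expressing TRPV1 were dye-loaded with Fluo-8 and read kinetically: 10 s baseline, 3 min after compound (agonist portion), then 2 min after EC20 capsaicin (allosteric enhancer portion). Calcium-bound dye fluorescence at 480/520 nm.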
# Menin-MLL FL inh = menin-MLL binding inhibition, fluorescein peptide | FP activity change, % at 61.4 µM | AID 1766 | Fluorescence polarization, fluorescein-MLL peptide displacement from menin | 290,000 tested, under 10 active; inconclusive = falling polarisation curve, or a change in total fluorescence; inactive = total fluorescence flat and polarisation flat or rising; no compound was filed as active; the % refers to the polarisation; negative = inhibition;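 further: % of control where 0% means no effect; inhibitors lower the polarisation; unlabelled MLL peptide was the positive control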
# PINK1 modulator = PINK1 expression modulation; 0.2% of 410,000 active; PINK1 immunofluorescence, high-content cytometry, 24 h; Potency, µM (doses to about 76.6 µM), without a hit: at the highest dose activation (PINK1 increase), actives largely listed as activators; AID 624263; active = well fitted activation curve with a large enough effect; inconclusive = small, poorly fitted or top-dose-only effect; inactive = flat fitted curve, though single readings scatter; cell line not stated here;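 further: potency means the concentration at half of the fitted maximal effect; % of control where 0% means no effect; nearly all actives have a fitted effect of over 65% in size; a mitochondrial uncoupler was the plate control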
#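 Stable cell line, 250 cells/well, 12 h attachment; compounds pinned at 5 concentrations, 24 h; CCCP control. Fixed with nuclear dye, primary antibodies 12 h at 10 degrees C, secondary plus cell stain; laser-scanning cytometer read.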
# Active calls of the source: *; ? = inconclusive; nt = no result given; [ ] = dose if it differs, or a comment.
SMILES,TRPML1 inh,TRPML1 agonist,ClpP mod,Sfp inh,TRPV1 PAM,Menin-MLL FL inh,PINK1 modulator
Cc1ccc2c(c1)N(CC(=O)N1CCCC1)C(=O)c1cccnc1O2,1,-0.7,-1.3%,4%,-6,nt,0.1%
Cc1cc2oc(=O)cc(CN3CCOCC3)c2c(C)c1Cl,-3,2.0,-1.2%,1%,-23,-0.5,-1.4%
CC(C)(C)c1nnc(NC(=O)c2cccnc2)s1,21,-0.1,-3.4%,14%,-17,-4.2,-0.5%
Cc1cccc(NC(=O)N2CCc3ccccc3C2)c1C,-1,-0.6,-1.4%,6%,-23,3.1,2.3%
O=C(NC1CCCCC1)N1CCN(c2ccc(Cl)cc2)CC1,-5,0.1,1.4%,15%,-24,-0.6,-0.4%
Cc1nn(C(C)C)c(C)c1[C@@H]1C[C@H]2CN(Cc3cccc(Cl)c3)C(=O)[C@]23CCCN13,-1,-0.2,nt,5%,1,12,-0.1%
COC(=O)COc1ccc2oc(=O)cc(C)c2c1,-5,0.2,?,18%,18,-1.4,-1.4%
CCOC(=O)C1CCN(C(=O)CN2c3ccc(C(C)C)cc3-c3ccccc3S2(=O)=O)CC1,-15,-0.9,0.1%,nt,nt,nt,1.9%
O=C(COC(=O)C1CCC1)Nc1ncc(Cl)cc1Cl,-9,0.6,nt,nt,2,nt,-0.4%
CC1CC=CC2C1C(=O)N(Cc1ccccc1)C2c1ccc(F)c(/C=C/c2ccccc2)c1 (configuration not stated),19,1.0,nt,-13%,nt,0.9,nt
Cc1c(C(=O)N2CCCCC2)sc(NC(=O)C2CC2)c1C#N,38,0.6,-0.6%,-5%,-10,0.5,?
Cn1c(SCC(=O)N2CCOCC2)nnc1-c1cnccn1,12,1.1,-0.1%,1%,27,0.0,0.7%[38.3 µM]
CCOc1ccc(-n2cc(C(=O)NC(C)C)c3cc(OC)c(OC)cc3c2=O)cc1,4,0.8,-2.7%,12%,2,4.6,-2.1%
CCCn1c(=O)c(C(=O)Nc2nnc(CC)s2)c(O)c2ccccc21,nt,nt,nt,1%,1,0.7,nt
CC(C)Oc1cccc(NC(=O)C2CCN(S(=O)(=O)Cc3ccccc3)CC2)c1,21,0.0,-0.8%,nt,nt,nt,2.5%
O=C(/C=C/c1ccccc1[N+](=O)[O-])c1ccccc1Br,-3,2.4,nt,?,0,-6.5,-2.3%
O=C1N(CN2C(=O)C3(OCCO3)c3ccccc32)c2ccccc2C12OCCO2,-14,-0.3,-12%,-4%,-4,1.1,2.0%
O=[N+]([O-])c1ccc(CN2CCN(c3ccc(F)cc3)CC2)o1,3,0.3,-2.2%,-44%,-4,5.5,0.0%
COc1ccc(NC(=O)C2C3CCC(O3)C2C(=O)O)c(C)c1 (configuration not stated),-6,-0.9,nt,1%,9,-0.3,5.2%
CCOc1ccc(OCCCC(=O)N(C)CC(=O)Nc2ccccc2Br)cc1,-15,-0.2,-3.1%,nt,nt,nt,1.6%
N#Cc1cccc(-c2nc3cnc(N4CCNCC4)nc3n(C3CC3)c2=O)c1,nt,nt,nt,-15%,nt,3.3,-1.4%
CC(C)(C)OC(=O)N1CCC(NC(=O)c2[nH]cnc2C(=O)Nc2ccc(Br)cc2F)CC1,14,-0.1,2.9%,nt,nt,nt,-0.4%
Cc1ccc2c(c1)nnn2C1CCN(CC(=O)NCCc2ccccc2)CC1,-15,0.4,-2.5%,-2%,nt,2.3,0.1%[38.3 µM]
COc1ccccc1NC(=O)C(C)N1C(=O)c2ccccc2C1=O (configuration not stated),19,0.2,-2.8%,15%,-1,-1.3,0.0%
COc1ccccc1CNC(=O)c1ccc(C)s1,-22,0.3,0.3%,14%,-4,-1.7,1.2%
SMILES,TRPML1 inh,TRPML1 agonist,ClpP mod,Sfp inh,TRPV1 PAM,Menin-MLL FL inh,PINK1 modulator
CCCCN1C(=O)C(CC(=O)NCC2CCCCC2)CC(C(=O)N2CCOCC2)=C1C (configuration not stated),-2,0.0,2.2%,nt,nt,nt,2.9%
CC(=O)Nc1ccc(S(=O)(=O)N(C)CC(=O)N(C)Cc2sccc2C)cc1,-8,3.5,0.6%,nt,-2,nt,1.2%
COc1ccccc1CNC(=O)CCc1c(C)nn(-c2ccc(N3CCCC3)nn2)c1C,1,-0.2,0.0%,nt,nt,nt,3.0%
CCOC(=O)C(C)Oc1cccc2c(=O)n(CC(=O)NCc3ccc4c(c3)OCO4)ccc12 (configuration not stated),-3,0.8,35%,0%,nt,2.9,8.0%
O=S(=O)(c1ccc2c(c1)CCN2)N1CCCC1,7,0.1,-9.4%,nt,18,nt,-1.9%
CC1(C)NC(=O)N(CC(O)CN2CCOCC2)C1=O (configuration not stated),4,1.1,-2.9%,14%,7,0.5,-2.0%
CCCCCC(=O)Nc1cc(S(=O)(=O)O)cc2cc(S(=O)(=O)O)cc(O)c12,10,0.7,3.2%,nt,nt,nt,-0.3%
CN(Cc1ccccc1)C(=O)c1nc[nH]c1C(=O)N1CCN(C(=O)OC(C)(C)C)CC1,-12,0.2,-3.2%,nt,10,nt,-1.0%
O=C(COC(=O)c1ccccc1Cc1ccccc1)Nc1ccc(SC(F)F)cc1,-12,2.6,-1.8%,16%,3,1.5,?
Cn1c(=O)oc2ccccc2c1=O,7,2.5,nt,nt,nt,nt,-0.2%
O=C(NC1CCCC1)C1CCN(C(=O)c2ccc(Cl)cc2Cl)CC1,20,-0.2,nt,6%,7,-3.1,-0.9%
CCCCn1c(N)c(N(CC(C)C)C(=O)CSCC(=O)Nc2ccc(C)cc2)c(=O)[nH]c1=O,-17,0.1,-1.6%,nt,9,nt,0.3%
CCOC(=O)C1CCN(C(=O)c2ccc3c(c2)NC(=O)/C(=C/c2ccccc2)S3)CC1,-6,0.6,-2.5%,-23%,0,nt,-1.2%
O=C(NC(Cc1ccccc1)C(=O)O)/C(=C/c1ccc([N+](=O)[O-])cc1)NC(=O)c1ccco1 (configuration not stated),-6,2.9,nt,3%,-21,3.7,6.5%
CC1Sc2ccc(S(=O)(=O)N3CCN(c4cccc(Cl)c4)CC3)cc2NC1=O (configuration not stated),7,1.9,-0.5%,8%,1,nt,3.1%
O=C(Nc1ccc(C(=O)NCC2CCN(Cc3ccccc3F)CC2)cc1)C1=CSCCO1,32,0.4,-3.0%,3%,-3,nt,0.3%
COCC(=O)Nc1c(I)c(C(=O)NCC(O)CO)c(I)c(C(=O)N(C)CC(O)CO)c1I (configuration not stated),7,-0.2,4.6%,nt,nt,nt,0.8%
Cc1ccc(N2CC(C(=O)Nc3nnc(SCC(=O)NCC4CCCO4)s3)CC2=O)cc1C (configuration not stated),26,0.5,-0.9%,-9%,-3,nt,-1.9%
Cc1cccc(N2CCN(C(=O)COc3ccc4ccc(=O)oc4c3)CC2)c1C,34,1.6,-26%,7%,-4,-0.1,2.1%
COCCCNCCOc1ccc(C)cc1[N+](=O)[O-],-7,-0.5,-1.0%,-13%,-3,3.5,-2.4%
OCC1CCCN(C(=S)Nc2ccc(Nc3ccccc3)cc2)C1 (configuration not stated),-9,-0.1,nt,-4%,11,-2.5,0.2%
CCOC(=O)CCn1c(=O)c2cccn2c2cccnc21,-9,0.6,4.0%,nt,nt,nt,0.5%
O=C(N/N=C/c1ccc(OC(F)F)cc1)c1ccc(Br)cc1,46,0.0,-21%,-13%,-4,-1.2,8.8%
Cc1ccc(C)c(NC(=O)Cn2nnc(C(=O)Nc3c(C)cccc3C)c2N)c1,14,-0.3,-0.2%,1%,nt,-0.6,-1.2%
COc1ccc(CCC(=O)OCC(=O)Nc2sccc2C(N)=O)cc1OC,-5,0.0,1.1%,nt,nt,nt,-0.5%
SMILES,TRPML1 inh,TRPML1 agonist,ClpP mod,Sfp inh,TRPV1 PAM,Menin-MLL FL inh,PINK1 modulator
c1ccn2cc(CSc3nnc4ccccn34)nc2c1,-14,0.4,-0.7%,?,2,0.7,nt
Nc1nonc1-n1nnc(C(=O)N/N=C/c2cccc(Cl)c2)c1-c1cccs1,-7,1.1,-5.1%,-1%,5,nt,0.6%
c1ccc(N(c2ccccc2)c2nc(-n3ccnc3)nc(-n3ccnc3)n2)cc1,5,3.0,0.8%,-9%,23,2.3,0.4%
Nc1ncnc2c1ncn2[C@@H]1O[C@H](C(=O)N[C@@H](CO)Cc2ccccc2)[C@@H](O)[C@H]1O,-18,0.9,0.6%,nt,nt,nt,1.1%
Cc1cccc(N2CCN(C(=O)C3CCN(S(=O)(=O)c4ccc5c(c4)oc(=O)n5C)CC3)CC2)c1C,-4,-0.6,-3.5%,nt,nt,nt,2.6%
COc1ccc(C2c3c(-c4cc(Cl)c(C)cc4O)n[nH]c3C(=O)N2Cc2cccnc2)cc1OC (configuration not stated),2,-0.4,-4.4%,-27%,-8,5.8,1.4%
CCc1ccc(-c2[nH]c3c(c2-c2sc(C)c(C(=O)OC)c2O)c(=O)[nH]c(=O)n3C)cc1,-21,4.4,2.0%,nt,nt,nt,14%
COc1cc(OC)cc(C(=O)NCC(=O)OCC(=O)N2CCc3ccccc32)c1,9,1.2,-3.0%,9%,9,-2.4,-1.0%
CCOC(=O)C1=C(N)OC2=C(C(=O)CC(C)(C)C2)C1c1ccccc1OC (configuration not stated),-4,4.6,-2.8%,11%,0,1.4,-0.9%
CCc1ccc(/C=C2\SC(=S)N(CCCC(=O)Nc3ccccn3)C2=O)cc1,12,-0.4,-0.8%,1%,4,?,?
CN(C)S(=O)(=O)c1cccc(NC(=O)COC(=O)c2ccc(Br)o2)c1,1,0.0,0.2%,5%,9,1.4,-0.8%
O=C(CN1CCOc2ccccc21)NC1CCCCCCC1,-18,1.1,-1.0%,nt,nt,nt,4.4%
O=C(NC1CCN(S(=O)(=O)c2ccc(F)cc2)CC1)c1ccc(F)cc1,11,1.3,-1.2%,20%,-18,-6.3,2.6%
CC(C)(C)c1ccc(OCC(=O)NCc2ccco2)c(Br)c1,10,1.8,0.8%,-23%,-8,4.0,-0.3%
O=C1C=C(c2ccc(Cl)cc2)C(=O)N1Nc1ccccc1,-12,2.1,-1.7%,10µM*,-4,5.4,3.8%
COc1ccc(CN=C2NN=C(c3ccc(Cl)cc3)CS2)cc1,-10,-0.2,nt,-14%,4,1.6,-0.9%
COC(=O)Nc1ccc(C)cc1NC(=O)OC,5,-0.4,-0.6%,7%,4,0.5,3.5%
